High-throughput results: PubChem, Center for Chemical Genomics, University of Michigan
CDC25B CDK2 inh: primary biochemical HTRF screen for blockers of M-phase inducer phosphatase 2 binding to CDK2/cyclin A | P30305+P24941 | hit rate 0.72% among 94,000 | HTRF CDC25B-CDK2/CyclinA binding, anti-His/anti-Flag; active compounds read high | AID 1259370, 2018 | z-score (no concentration beside the values);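 note: score is relative to mean and SD of negative controls; strong numbers were not always called active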
HIV TAR-Tat: TAR RNA-Tat peptide displacers, HIV-1, primary screen, biochemical, FRET, FAM/TAMRA-labeled Tat; hit rate 0.6% among 100,000; z-score (concentration not given with the values); HIV-1 TAR RNA, Tat peptide displacement FRET; active compounds read high; AID 1259389, 2018;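 note: score is relative to mean and SD of negative controls; some compounds called inactive have numbers as strong as hits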
Numbers without * were called inactive; . = not tested or not shown.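 Rule for the calls: active = z-score from 3 up in half or more of its runs; inactive = the rest.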 Hits appear at their usual frequency (roughly 0.87% active in at least one column).

SMILES | CDC25B CDK2 inh | HIV TAR-Tat
Cn1sc(=O)c2cc(S(=O)(=O)NC3CC3)ccc21 | -0.74 | .
CC1(C)CC(NC(=O)c2sc3cc(Cl)ccc3c2Cl)CC(C)(C)N1 | -1.3 | .
O=C(CN1C(=O)CCc2cc(S(=O)(=O)N3CCCC3)ccc21)NC1CCCCC1 | . | 0.36
Cn1c(CCNC(=O)CCCO)nc2ccccc21 | 0.86 | -0.12
CN(C)CC1(C(OC(=O)c2ccc([N+](=O)[O-])cc2)c2cccc(F)c2)CCCCC1 (configuration not stated) | -0.3 | .
O=c1nc(N2CCCCCC2)nc(N2CCCCCC2)[nH]1 | -0.35 | .
O=c1c2cccnc2n(Cc2ccccc2F)c(=O)n1Cc1ccccc1 | -1.7 | -0.12
CCCS(=O)(=O)c1c(S(=O)(=O)CCC)c2ccccn2c1C(=O)c1ccc(F)cc1 | -0.45 | 1.1
O=C(CSc1nc2ccccc2nc1N1CCOCC1)NCc1cccs1 | -2 | -1.6
CCN(Cc1cc2ccccc2[nH]c1=O)S(C)(=O)=O | -2.1 | 2.4
Cc1cccc(Nc2ccccc2C(=O)O)c1C | . | 0.99
C=CCOc1ccc2c(C(F)(F)F)cc(=O)oc2c1 | -1.2 | .
CC(=O)N1N=C(c2cc(-c3ccc(Br)cc3)n[nH]2)OC1c1ccccn1 (configuration not stated) | . | 0.07
Cc1ccnc(NC(=O)c2noc3c2CCc2sccc2-3)c1 | . | -1.1
CC(C)(C)NC(=O)Cn1c(=O)oc2ccc(Cl)cc21 | 0.35 | 3
O=C(CCS(=O)(=O)c1cc(Br)cc2c1N(C(=O)C1CC1)CC2)N1CCOCC1 | -1.3 | .
O=[N+]([O-])c1ccc(N2CCC2)cc1 | -1.9 | .
Cc1nc2sc(C(c3ccc(Cl)cc3)N3CCN(c4ccccc4)CC3)c(O)n2n1 (configuration not stated) | 0.26 | .
O=C1CCSc2ccc(S(=O)(=O)NCCCN3CCN(c4ccccc4)CC3)cc2N1 | . | 0.63
Cc1ccc(CNc2oc(COc3ccc(F)cc3)nc2C#N)cc1 | 0.41 | 0.94
COc1ccc(Cl)cc1NC(=O)CSC1=NN2CCCC(=O)N=C2S1 | -0.48 | .
Clc1cccc(-c2nnc(CN3CCc4ccccc4C3)o2)c1 | -1.2 | 0.73
Cc1cc(Nc2cc(Cl)ccc2C)n2nc(-c3ccco3)nc2n1 | . | -0.12
CCOc1ccccc1-c1cn2nc(COC)sc2n1 | 0.03 | 0.4
CCOC(=O)c1c(C)[nH]c(NC(=O)NC2CCCCC2)c1C | -0.02 | 0.78
CSc1ccc(C2Nc3c(C)cccc3-c3cc(C)nn32)cc1 (configuration not stated) | -3.2 | -0.44
C=CCNc1ccccc1C(=O)NCC(=O)OCC | -0.71 | .
Cn1ncc(C(=O)O/N=C(\N)c2ccccc2)c1-n1cccc1 | -0.13 | .
CCOC(=O)c1cnc(SCC(=O)NC(C)CC)nc1N (configuration not stated) | . | 0.06
c1ccc(CN2CCN(c3ncnc4sc5c(c34)CCC5)CC2)cc1 | . | 0.75
COc1cccc(Nc2nc(N(C)C)nc3c2cnn3C)c1 | . | -0.29
O=C(Cn1nc(C(F)(F)F)c2c1CCCC2)N1CCCC1c1cccc(F)c1 (configuration not stated) | -1.4 | 1
O=C(N1CCOCC1)N1CCC(Cc2ccccc2)CC1 | 0.22 | .
CCN1CCN(c2ccc(-n3c(C)nc4c(cnn4-c4ccccc4Cl)c3=O)cc2)CC1 | -0.33 | -0.36
Cn1c(SCC(=O)OCC(=O)c2ccccc2)nnc1-c1cccs1 | 0.64 | 0.65
NC(=O)C1=C(N=C2CCCCC2)CCCC1 | -2.2 | .
Cn1c(C2=C(O)CN(c3ccc(F)cc3)C2=N)nc2ccccc21 | -1.7 | 0.89
COC(=O)COc1ccc2c(=O)c(-c3ccccc3OC)c(C(F)(F)F)oc2c1 | -2.6 | -0.16
Cc1cc2[nH]c(=O)c(=O)[nH]c2cc1S(=O)(=O)N1CCCCC1C (configuration not stated) | . | 1.7
Cc1cc(C(=O)NNC(=S)NCc2ccccc2)ccc1[N+](=O)[O-] | -2 | .
CCN1CCN(c2ncnc3c2cnn3-c2ccc(Cl)cc2)CC1 | -1.4 | .
CCOc1cc(S(=O)(=O)n2cnc(C)c2)ccc1F | 0.05 | 0.53
CC(C)NC(=O)CCC(=O)N1CCSc2ccccc21 | . | 2.2
Cc1ccc(C(=O)c2oc3ccccc3c2NC(=O)c2cc(=O)c3ccccc3o2)cc1 | 0.47 | -1.3
CCOc1cc(OCC)cc(C(=O)Nc2cccc3ccccc23)c1 | -2.1 | .
COc1cccc(C2CC(c3cccs3)=NN2C(=O)CSc2c[nH]c3ccccc23)c1OC (configuration not stated) | -3.5 | .
CCCN1C(=O)C(=O)c2ccccc21 | -1.6 | 1.5
COC(=O)C1C(=O)OC(C)(C)C2CCC(C)CC12 (configuration not stated) | -0.94 | .
O=C(CNC1CCCCC1)Nc1c2c(nc3c1CCC3)CCC2 | -0.32 | .
Cn1cc(NC(=O)NCc2ccccn2)c2ccccc2c1=O | . | -2.1
(cont.)
SMILES | CDC25B CDK2 inh | HIV TAR-Tat
CC(=O)OC(C(=O)N(Cc1ccccc1)c1ccccc1)c1ccccc1 (configuration not stated) | -0.71 | .
COc1ccc(CN2CCN(Cc3cc(OC)ccc3O)CC2)cc1 | -1.3 | 0.16
Cc1nn2c(-c3ccc4c(c3)OCO4)ccnc2c1-c1ccc(F)cc1 | -1.2 | 0.39
Cc1cc(C)cc(-n2ccnc(SCc3ccccc3C)c2=O)c1 | . | 0.07
O=C(NCCCN1CCCC1)C1=Cc2sc3c(c2CS1)CCCC3 | . | 2
Cn1c(=O)c2c(SCC(N)=O)nc(-c3ccco3)nc2n(C)c1=O | -1.4 | .
COc1ccc(CCNc2nc(-c3ccncc3)cs2)cc1OC | -0.46 | 0.5
CCC(=O)N1CCc2cc(Br)cc(S(=O)(=O)N3CCC(N4CCCCC4)CC3)c21 | -0.29 | 0.4
O=S(=O)(NCc1cccn1Cc1ccc(Cl)cc1)c1ccc(F)c(Cl)c1 | . | 2.9
CC(C)CCNC(=O)C1CCCN1c1nnc(N2CCCC2=O)s1 (configuration not stated) | -1.6 | 3

The final five records of the part above lead into the next:
SMILES | CDC25B CDK2 inh | HIV TAR-Tat
Cn1c(=O)c2c(SCC(N)=O)nc(-c3ccco3)nc2n(C)c1=O | -1.4 | .
COc1ccc(CCNc2nc(-c3ccncc3)cs2)cc1OC | -0.46 | 0.5
CCC(=O)N1CCc2cc(Br)cc(S(=O)(=O)N3CCC(N4CCCCC4)CC3)c21 | -0.29 | 0.4
O=S(=O)(NCc1cccn1Cc1ccc(Cl)cc1)c1ccc(F)c(Cl)c1 | . | 2.9
CC(C)CCNC(=O)C1CCCN1c1nnc(N2CCCC2=O)s1 (configuration not stated) | -1.6 | 3
CC(C)Cn1c(=O)c2sccc2n2c(CCCC(=O)NC(C)c3ccc4c(c3)OCCO4)nnc12 (configuration not stated) | . | 0.04
CC1=C(c2ccc(C)cc2)S(=O)(=O)NC1=NCCCN1CC(C)CC(C)C1 (configuration not stated) | 0.81 | -1.4
O=C(CC1CSc2ccccc2NC1=O)Nc1cccc(Cl)c1 (configuration not stated) | . | -0.69
c1ccc(-c2cc(-c3ccccc3)c(N3CCCC3)nn2)cc1 | -1.8 | .
CCc1cccc(-n2nnc(-c3nc(-c4ccccc4)no3)c2N)c1 | . | -0.23
CC(=O)Oc1ccc(C2OC(=O)C(C)(C)C(=O)C23CCCCC3)cc1 (configuration not stated) | 0.63 | .
CCn1c(Cc2ccccc2)n[nH]c1=S | 0.56 | .
CCN(CC)C(=O)c1cc2c(=O)[nH]c3ccccc3c2n1C | -2 | .
COc1ccc(N2CCCS2(=O)=O)cc1NS(=O)(=O)c1ccc(F)cc1C | . | -0.07
Cc1cc(C)c(-c2n[nH]c3c2C(c2ccccc2F)N(CC2CCCO2)C3=O)c(O)c1 (configuration not stated) | -1.6 | 0.49
CCC(=O)Nc1c(-c2ccc(C)cc2)nc2ccc(C)cn12 | -0.75 | .
O=C(O)COc1ccc(C(=O)Cc2ccc3c(c2)OCCCO3)c(O)c1 | 0.63 | .
Cc1cc(C(=O)N2CCN(C(=O)c3ccco3)CC2)c2cc(Br)ccc2n1 | . | -0.26
COc1ccc(-n2ncc3c(Nc4ccc(F)cc4F)ncnc32)cc1 | . | -2
COC(=O)c1c(C)nn(-c2ccccc2)c1-n1c(C)ccc1C | -1.3 | 1.7
O=C(Nc1ccccc1F)C1(c2cccs2)CCOCC1 | . | 1.1
CC(C)C1C(=O)CC(c2ccccc2)NC1c1ccccc1 (configuration not stated) | -0.66 | -1.1
O=C1C2C(c3ccc(Cl)cc3)OC3(C(=O)c4ccccc4C3=O)C2C(=O)N1c1ccc(F)cc1 (configuration not stated) | -2.1 | .
CCOc1ccc(C2c3c(oc4ccccc4c3=O)C(=O)N2c2nncs2)cc1OCC (configuration not stated) | 1.5 | -0.12
CCc1nnc(SCc2cc(=O)n3ccccc3n2)c2cc3occc3n12 | . | 1.4
COc1cc(C2CC(=O)Nc3nc(N)[nH]c(=O)c32)ccc1OCc1ccc(Cl)cc1 (configuration not stated) | 0.15 | -1.3
O=c1[nH]c(Nc2ccccc2)cc2ccccc12 | 16* | -7.4
Cc1ccsc1C1C(C#N)=C(N)Oc2nc(-c3ccccc3)[nH]c21 (configuration not stated) | -2.4 | .
Cc1cccc(N2CCN(c3nc4ccccc4c4nnc(C)n34)CC2)c1C | -2.4 | 1.4
CC1(C(=O)NC2CCCC2)Cn2c(ccc2-c2ccco2)C(=O)N1Cc1cccs1 (configuration not stated) | . | -7.6
Cc1ccc2c(c1)Cc1c(nc(-c3cccc(O)c3)[nH]c1=O)O2 | -1.2 | 0.91
CCC(=O)Nc1nnc2n1CCCS2 | . | 0.11
COc1ccc(N2C(=O)C3N=NN(Cc4cc(OC)ccc4Br)C3C2=O)cc1 (configuration not stated) | -0.97 | 2.9
Cc1ccc(S(=O)(=O)N(CCCc2ccccc2)CCS(=O)(=O)N2CCNCC2)c(C)c1 | . | 2
COc1ccc(OCc2nn3c(-c4ccccc4OC)nnc3s2)cc1 | -1.5 | 1.7
O=C(Cn1c(=O)c2cccn2c2ccc(F)cc21)NC1CCCc2ccccc21 (configuration not stated) | . | -2.1
Cc1ccc(-c2nc3ccccc3c3nnc(SCc4cc(=O)n5cc(Cl)ccc5n4)n23)cc1 | . | 0.58
Cn1ncc2c(Nc3ccc(F)cc3)nc(NC3CCCCC3)nc21 | . | 0.23
CCc1c(CN2CCN(C(=O)c3ccco3)CC2)csc1C | . | 1.3
Cc1onc(-c2ccccc2)c1-c1csc(-c2ccno2)n1 | -0.8 | .
O=C(NC1CCCCC1)N1CCC(n2c(C3CCCC3)nc3cccnc32)CC1 | . | 1.1
Cc1cc2c(cc3c(=O)n(CCCC(=O)N4CCC(C)CC4)nc(C)n32)o1 | -1.8 | 0.61
O=C(NCc1ccc2c(c1)OCO2)c1ccc(N2CCCC2=O)cc1 | -1.4 | .
Fc1ccc(Nc2cnc3ccccc3n2)c(Cl)c1 | . | -0.2
CCOCCCNC(=O)Cn1sc2nc(C)cc(C)c2c1=O | -0.6 | 0.67

Gathered by group: the entries above with an aryl thioether with sulfur outside any ring.
SMILES | CDC25B CDK2 inh | HIV TAR-Tat
O=C(CSc1nc2ccccc2nc1N1CCOCC1)NCc1cccs1 | -2 | -1.6
CSc1ccc(C2Nc3c(C)cccc3-c3cc(C)nn32)cc1 (configuration not stated) | -3.2 | -0.44
CCOC(=O)c1cnc(SCC(=O)NC(C)CC)nc1N (configuration not stated) | . | 0.06
Cn1c(SCC(=O)OCC(=O)c2ccccc2)nnc1-c1cccs1 | 0.64 | 0.65
COc1cccc(C2CC(c3cccs3)=NN2C(=O)CSc2c[nH]c3ccccc23)c1OC (configuration not stated) | -3.5 | .
Cc1cc(C)cc(-n2ccnc(SCc3ccccc3C)c2=O)c1 | . | 0.07
Cn1c(=O)c2c(SCC(N)=O)nc(-c3ccco3)nc2n(C)c1=O | -1.4 | .
CCc1nnc(SCc2cc(=O)n3ccccc3n2)c2cc3occc3n12 | . | 1.4
Cc1ccc(-c2nc3ccccc3c3nnc(SCc4cc(=O)n5cc(Cl)ccc5n4)n23)cc1 | . | 0.58

Later entries.
SMILES | CDC25B CDK2 inh | HIV TAR-Tat
Cc1cccc(-c2nn3c(C)nnc3s2)c1 | 0.7 | 2
COC(=O)Cn1cc(C(=O)c2cccs2)c2ccccc21 | -0.65 | 2.2
CCN(CC)CCCNc1c2c(c(C#N)c3nc4ccccc4n13)CCC2 | 1.1 | -7.4
Nc1nnc(-c2nonc2N)s1 | 0.68 | 0.1
COc1ccc2c(=O)c(OC)c(-c3ccccc3)oc2c1 | . | 3.6
CCOC(=O)C1=C(C)Nc2[nH]c(=O)[nH]c(=O)c2C1c1ccccc1Cl (configuration not stated) | 0.28 | .
CC1(C)Cc2c(sc3nc(SCC(=O)O)n(Cc4ccccc4)c(=O)c23)CO1 | -0.83 | -1.3
N#CC1=C(SCc2ccccc2)NC(=O)CC1c1ccccc1Cl (configuration not stated) | -0.91 | -0.3
CN(c1nnc(NC(=O)Nc2cc(F)ccc2F)s1)C1CCCCC1 | -1.3 | 2.2
O=C1CC(c2ccc3c(c2)OCO3)c2c(-c3ccccc3)nn(-c3ccccc3)c2N1 (configuration not stated) | -0.34 | 0.48
COc1ccc(-c2nc3ncccn3c2NCc2ccccc2)cc1OC | . | -0.13
Cc1ccc(C2N(C)c3ccccc3-c3nc4ccccc4n32)o1 (configuration not stated) | -0.93 | .
